Screening results (PubChem BioAssay)
Vaccinia inh = blocks a specific stage of Vaccinia orthopoxvirus infection, primary screen, cell-based, single point. Vaccinia-infected cells, mCherry/Venus stage reporter fluorescence; active compounds read low; some inactives read as strong as hits. activity change (mCherry), % (test concentration not listed). 0.01% of 89,000 active;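 active = mCherry past -33% and 40 or more points under the early reporter, replicates agreeing; inconclusive = past -33% without that gap or agreement; tested in A549 cells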;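 also: scaled between vehicle wells and reference inhibitor wells; 23 nL library stock went into each well; one replicate is shown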
Vaccinia inh Venus = recorded beside Vaccinia inh, whose call it bears; activity change (Venus), %; measured here: Venus reporter, other viral stage;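 negative = less Venus signal; first of two replicates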
* hit, by the source's call; u = inconclusive; x = not tested or not shown; & = joins results of further samples. The list is partial. The share of hits here may be higher or lower than overall.

Each structure is followed by: Vaccinia inh, Vaccinia inh Venus
[1] C[C@@H]1CCCCO[C@@H](CN(C)S(=O)(=O)c2ccccc2)[C@@H](C)CN([C@H](C)CO)C(=O)c2cc(NC(=O)Cc3ccccc3)ccc2O1
  22, 0
[2] O=C(C[C@@H]1CC[C@@H](NC(=O)CC2CC2)[C@@H](CO)O1)NCC(F)(F)F
  9, 2
[3] O=C(C[C@@H]1C[C@H]2c3cc(NC(=O)NC4CCCC4)ccc3O[C@H]2[C@@H](CO)O1)NCc1ccc(Oc2ccccc2)cc1
  1, 3
[4] O=C(CN1CCOCC1)N[C@@H]1CC[C@@H](CCNC(=O)Nc2cc(F)ccc2F)O[C@H]1CO
  10, 10
[5] C[C@H](CO)N1C[C@H](C)[C@@H](CN(C)C(=O)C2CCCCC2)OCCCC[C@H](C)Oc2ccc(NC(=O)c3ccncc3)cc2C1=O
  0, 1
[6] C[C@@H]1CN([C@@H](C)CO)S(=O)(=O)c2ccc(C#Cc3ccc(F)cc3)cc2O[C@@H]1CN(C)C(=O)NC1CCCCC1
  u, x
[7] CO[C@H]1CN(C)C(=O)c2ccc(NS(=O)(=O)c3cccc(Cl)c3)cc2OC[C@@H](C)NC[C@@H]1C
  -2, 3
[8] CO[C@H]1CN(C)C(=O)c2cc(NC(C)=O)ccc2OC[C@H](C)N(Cc2ccc(F)cc2)C[C@H]1C
  -1, 2
[9] C[C@H](CO)N1C[C@H](C)[C@@H](CN(C)C(=O)Nc2cccc3ccccc23)Oc2c(NC(=O)C3CC3)cccc2C1=O
  31, 17
[10] CO[C@H]1CN(C)C(=O)c2ccc(NC(=O)Nc3cccc(Cl)c3)cc2OC[C@H](C)NC[C@H]1C
  u, x
[11] C[C@@H]1CCCCO[C@H](CN(C)CC2CC2)[C@H](C)CN([C@@H](C)CO)C(=O)c2cc(NC(=O)NC3CCCCC3)ccc2O1
  -9, -18
[12] Cc1noc(C)c1NC(=O)N(C)C[C@H]1Oc2c(cccc2N(C)C)C(=O)N([C@@H](C)CO)C[C@@H]1C
  12, 3
[13] Cc1ccc(S(=O)(=O)Nc2cccc3c2O[C@@H](CN(C)Cc2ccc(C(=O)O)cc2)[C@@H](C)CN([C@@H](C)CO)C3=O)cc1
  8, -1
[14] CCC(=O)N1[C@H](CNC(=O)CN(C)C)[C@H](c2ccc(C3=CCCC3)cc2)[C@@H]1CO
  13, 11
[15] Cc1ccc(S(=O)(=O)Nc2ccc3c(c2)C(=O)N([C@@H](C)CO)C[C@@H](C)[C@@H](CN(C)S(=O)(=O)c2ccccc2)OCCCC[C@H](C)O3)cc1
  -14, -8

Two neighbouring records out of the list so far, for reference:
Each structure is followed by: Vaccinia inh, Vaccinia inh Venus
[6] C[C@@H]1CN([C@@H](C)CO)S(=O)(=O)c2ccc(C#Cc3ccc(F)cc3)cc2O[C@@H]1CN(C)C(=O)NC1CCCCC1
  u, x
[7] CO[C@H]1CN(C)C(=O)c2ccc(NS(=O)(=O)c3cccc(Cl)c3)cc2OC[C@@H](C)NC[C@@H]1C
  -2, 3

Following part:
Each structure is followed by: Vaccinia inh, Vaccinia inh Venus
[16] O=C(NCC1CC1)[C@@H]1[C@@H](CO)[C@@H]2Cn3c(ccc(-c4ccccc4)c3=O)[C@H]1N2C(=O)C1CC1
  -2, 0
[17] C[C@H](CO)N1C[C@H](C)[C@H](CN(C)C(=O)Nc2ccc(C(F)(F)F)cc2)Oc2ccc(NC(=O)Cc3cn(C)c4ccccc34)cc2C1=O
  -10, 8
[18] Cc1noc(C)c1NC(=O)N(C)C[C@H]1OCc2ccccc2-c2c(n(C)c3ccccc23)C(=O)N([C@@H](C)CO)C[C@H]1C
  2, 1
[19] CCC(=O)N(C)C[C@H]1Oc2cc(C#Cc3ccccn3)ccc2S(=O)(=O)N([C@H](C)CO)C[C@H]1C
  4, 5
[20] COc1ccc(S(=O)(=O)N(C)C[C@@H]2Oc3ccc(NC(=O)Nc4c(C)noc4C)cc3C(=O)N([C@@H](C)CO)C[C@@H]2C)cc1
  7, -3
[21] Cc1noc(C)c1NC(=O)N(C)C[C@H]1Oc2ccc(NC(=O)Nc3ccccc3)cc2C(=O)N([C@@H](C)CO)C[C@@H]1C
  8, 7
[22] CN1CCN(C(=O)C[C@H]2CC[C@H]3[C@H](COc4ccc(NC(=O)C5CCCCC5)cc4C(=O)N3C)O2)CC1
  -5, -7
[23] C[C@@H]1CN([C@H](C)CO)C(=O)c2cccc(NS(=O)(=O)c3ccccc3)c2O[C@@H]1CN(C)Cc1ccc2c(c1)OCO2
  -1, 4
[24] CO[C@@H]1CN(C)C(=O)c2cc(NS(=O)(=O)c3ccccc3)ccc2OC[C@@H](C)N(C(=O)NC(C)C)C[C@H]1C
  27, 19
[25] CCS(=O)(=O)Nc1ccc2c(c1)C(=O)N(C)[C@@H]1CC[C@@H](CC(=O)N3CCOCC3)O[C@@H]1CO2
  12, 11
[26] N#C[C@@H]1[C@H](c2ccccc2-c2ccccc2)[C@H](CO)N1C(=O)Cc1ccncc1
  8, 8
[27] CNC[C@@H]1OCCCC[C@@H](C)Oc2ccc(NC(=O)Nc3ccc(F)cc3)cc2C(=O)N([C@H](C)CO)C[C@@H]1C
  14, 6
[28] CCC(=O)N1CCCCN2[C@H](CO)[C@H](c3ccc(-c4cccc(C#N)c4)cc3)[C@H]2C1
  26, 3
[29] O=C(C[C@@H]1CC[C@H]2[C@@H](COC[C@H](O)CN2C(=O)Nc2cccc(F)c2)O1)NCc1ccccc1F
  -16, -9
[30] CO[C@@H]1CN(C)C(=O)c2ccc(NC(=O)CN(C)C)cc2OC[C@@H](C)N(C(=O)C2CCCCC2)C[C@H]1C
  -19, -9

The list goes on.
Each structure is followed by: Vaccinia inh, Vaccinia inh Venus
[31] O=C(C[C@@H]1C[C@@H]2c3cc(NC(=O)Nc4ccccc4F)ccc3O[C@@H]2[C@@H](CO)O1)NCc1ccccn1
  1, -4
[32] CCN1CC(=O)N2[C@@H](CO)[C@H](c3ccc(-c4cccnc4)cc3)[C@@H]2C1
  27, 10
[33] COc1ccc2c3c([nH]c2c1)[C@H](CO)N(C(=O)C1CCOCC1)CC31CCN(S(C)(=O)=O)CC1
  19, 8
[34] CN1C(=O)c2cc(NC(=O)c3cccs3)ccc2OC[C@H]2O[C@H](CC(=O)O)CC[C@@H]21
  6, 10
[35] CO[C@@H]1CN(C)C(=O)c2cc(NS(=O)(=O)c3cccc(F)c3)ccc2OC[C@@H](C)N(Cc2cc(F)ccc2F)C[C@H]1C
  u, x
[36] CN1C(=O)c2cc(NC(=O)c3cccs3)ccc2OC[C@@H]2O[C@@H](CC(=O)O)CC[C@H]21
  5, 2
[37] COc1cccc(S(=O)(=O)N(C)C[C@@H]2OCc3ccccc3-c3c(n(C)c4ccccc34)C(=O)N([C@@H](C)CO)C[C@@H]2C)c1
  u, x
[38] COc1ccc(NC(=O)N(C)C[C@H]2Oc3ccc(NC(=O)Nc4ccc(F)cc4)cc3C(=O)N([C@H](C)CO)C[C@H]2C)cc1
  18, 9
[39] COc1ccccc1NC(=O)N(C)C[C@H]1OCc2cnnn2CCCC(=O)N([C@H](C)CO)C[C@H]1C
  -9, 1
[40] Cc1ccccc1-c1cnc2c(c1)C(=O)N([C@@H](C)CO)C[C@H](C)[C@@H](CN(C)Cc1cncnc1)O2
  -3, 2
[41] C[C@H]1CN([C@@H](C)CO)C(=O)Cc2cc(NC(=O)Nc3ccc4c(c3)OCO4)ccc2O[C@H]1CN(C)Cc1ccc(C(=O)O)cc1
  18, 18
[42] C[C@@H]1CCCCO[C@H](CN(C)C(=O)CCC(F)(F)F)[C@@H](C)CN([C@H](C)CO)C(=O)c2cc(NC(=O)NC3CCCCC3)ccc2O1
  -11, -9
[43] COc1ccccc1CNC(=O)C[C@@H]1CC[C@H]2[C@H](COc3ccc(NC(=O)Nc4ccc(F)c(F)c4)cc3C(=O)N2C)O1
  12, 12
[44] O=C(NC1CCCCC1)[C@H]1[C@H](CO)[C@H]2Cn3c(cccc3=O)[C@H]2N1CC1CCCC1
  -6, -6
[45] O=C(N[C@H]1CC[C@@H](CCNC(=O)C2CCC2)O[C@H]1CO)c1ccccn1
  1, 4

The listing continues.
Each structure is followed by: Vaccinia inh, Vaccinia inh Venus
[46] CO[C@H]1CN(C)C(=O)c2cc(NC(=O)CC(F)(F)F)ccc2OC[C@H](C)N(C(=O)c2ccccc2F)C[C@H]1C
  5, 21
[47] C[C@@H]1CCCCO[C@H](CN(C)Cc2ccc3c(c2)OCO3)[C@H](C)CN([C@H](C)CO)C(=O)c2cc(NC(=O)c3ccccc3)ccc2O1
  u, x
[48] COc1ccc(-c2ccc([C@@H]3[C@H](C#N)N(C(=O)C4CC4)[C@H]3CO)cc2)cc1
  -14, -13
[49] CN1c2ccc(-c3cccc(F)c3)cc2[C@@H]2[C@@H](CCN2C(=O)c2ccccc2F)[C@H]1CO
  1, -2
[50] C[C@H](CO)N1C[C@H](C)[C@H](CN(C)CC2CCCCC2)Oc2ccc(NC(=O)C3CC3)cc2C1=O
  -2, 1
[51] C[C@H](CO)N1C[C@H](C)[C@H](CN(C)C(=O)Nc2cccc3ccccc23)Oc2c(NC(=O)c3nc4ccccc4s3)cccc2C1=O
  9, 13
[52] COc1ccccc1-c1ccc2c(c1)[C@H]1[C@H](CCN1C(=O)C1CC1)[C@@H](CO)N2
  -11, -12
[53] COc1ccc2c3c([nH]c2c1)[C@@H](CO)NCC31CN(C(=O)Nc2ccc3c(c2)OCO3)C1
  8, 5
[54] Cc1ccc(-c2cnc3c(c2)C(=O)N([C@H](C)CO)C[C@@H](C)[C@H](CN(C)C(=O)c2ccc(F)cc2)O3)cc1
  -21, -17
[55] C[C@H]1CCCCO[C@@H](CN(C)Cc2ccc(C(F)(F)F)cc2)[C@@H](C)CN([C@@H](C)CO)C(=O)c2cc(N(C)C)ccc2O1
  u, x
[56] C[C@H]1CN([C@@H](C)CO)C(=O)c2cc(-c3ccc(C(=O)N(C)C)cc3)cnc2O[C@H]1CN(C)Cc1ccc(C(=O)O)cc1
  27, 4
[57] Cc1noc(C)c1S(=O)(=O)N(C)C[C@H]1Oc2c(NS(=O)(=O)c3ccccc3)cccc2C(=O)N([C@@H](C)CO)C[C@H]1C
  7, 14
[58] O=C(C[C@@H]1CC[C@H]2[C@@H](COC[C@@H](O)CN2Cc2ccc3c(c2)OCO3)O1)N1CCCCC1
  -1, 11
[59] CNC[C@@H]1Oc2c(NS(=O)(=O)c3ccc(F)cc3)cccc2C(=O)N([C@H](C)CO)C[C@H]1C
  3, 1
[60] COc1ccc(NC(=O)Nc2ccc3c(c2)[C@@H]2C[C@@H](CC(=O)NCC4CC4)O[C@@H](CO)[C@@H]2O3)cc1
  11, 6

5 structures already listed, arranged by molecular weight, rising.
Each structure is followed by: Vaccinia inh, Vaccinia inh Venus
[53] COc1ccc2c3c([nH]c2c1)[C@@H](CO)NCC31CN(C(=O)Nc2ccc3c(c2)OCO3)C1
  8, 5
[58] O=C(C[C@@H]1CC[C@H]2[C@@H](COC[C@@H](O)CN2Cc2ccc3c(c2)OCO3)O1)N1CCCCC1
  -1, 11
[60] COc1ccc(NC(=O)Nc2ccc3c(c2)[C@@H]2C[C@@H](CC(=O)NCC4CC4)O[C@@H](CO)[C@@H]2O3)cc1
  11, 6
[46] CO[C@H]1CN(C)C(=O)c2cc(NC(=O)CC(F)(F)F)ccc2OC[C@H](C)N(C(=O)c2ccccc2F)C[C@H]1C
  5, 21
[47] C[C@@H]1CCCCO[C@H](CN(C)Cc2ccc3c(c2)OCO3)[C@H](C)CN([C@H](C)CO)C(=O)c2cc(NC(=O)c3ccccc3)ccc2O1
  u, x

Other results follow.
Each structure is followed by: Vaccinia inh, Vaccinia inh Venus
[61] CNC[C@@H]1Oc2c(NC(=O)c3cc(C)nn3C)cccc2C(=O)N([C@H](C)CO)C[C@H]1C
  17, 9
[62] O=C1CNC[C@H]2[C@@H](c3ccc(-c4ccccc4F)cc3)[C@@H](CO)N12
  15, 10
[63] C[C@@H]1CN([C@@H](C)CO)C(=O)CCCn2nncc2CO[C@H]1CN(C)Cc1ccc2c(c1)OCO2
  7&-3, 3&2
[64] C/C=C/c1ccc2c(c1)O[C@H](CN(C)C(=O)c1cnccn1)[C@@H](C)CN([C@@H](C)CO)S2(=O)=O
  -4, 6
[65] Cc1ccc(S(=O)(=O)N(C)C[C@H]2Oc3c(NC(=O)Nc4ccccc4)cccc3C(=O)N([C@H](C)CO)C[C@H]2C)cc1
  -25, -12
[66] C[C@@H]1CN([C@@H](C)CO)C(=O)c2cc(NC(=O)NC3CCCCC3)ccc2O[C@@H](C)CCCCO[C@H]1CN(C)C(=O)Nc1ccccc1
  1, -5
[67] C[C@H]1CN([C@@H](C)CO)C(=O)c2cc(NC(=O)c3ccncc3)ccc2O[C@H]1CN(C)S(=O)(=O)c1ccc(Cl)cc1
  8, 5
[68] CCS(=O)(=O)N1CCC2(CC1)CN(C(=O)c1ccc(F)cc1)[C@H](CO)c1c2c2ccc(OC)cc2n1C
  -12, -9
[69] N#C[C@@H]1[C@@H](c2ccc(C#Cc3cccc(F)c3)cc2)[C@H](CO)N1C(=O)C1CCOCC1
  -15, -9
[70] C[C@@H]1CN([C@@H](C)CO)C(=O)CCCn2nncc2CO[C@H]1CN(C)Cc1ccc2cccnc2c1
  9&-3, 4&2
[71] COc1ccc(S(=O)(=O)N(C)C[C@@H]2Oc3c(NC(=O)CCCCCC(=O)Nc4ccccc4N)cccc3C(=O)N([C@@H](C)CO)C[C@@H]2C)cc1
  0, -3
[72] COc1ccc([Si](C)(C)[C@H]2[C@H](CCO)O[C@@]3(C(=O)N4c5c(cc(OC)cc53)C(C)=CC4(C)C)[C@@H]2C)cc1
  u, x
[73] Cc1ccc(OC(=O)N(C)C[C@H]2OCc3ccccc3-c3c(n(C)c4ccccc34)C(=O)N([C@H](C)CO)C[C@H]2C)cc1
  u, x
[74] CO[C@H]1CN(C)C(=O)c2cc(NC(=O)NC(C)C)ccc2OC[C@@H](C)N(C(=O)CC2CC2)C[C@@H]1C
  10, 12
[75] O=C(C[C@@H]1C[C@H]2c3cc(NS(=O)(=O)c4ccc(F)cc4)ccc3O[C@H]2[C@H](CO)O1)NC1CCCC1
  2, 2
